# From PubChem
# GALR2 ag = GALR2 (human) receptor agonism. O43603. GALR2-expressing cells, agonist activation read-out. activation, %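 (tested at 5 µM)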. 0.48% of 140,000 active. AID 803;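 active = above mean plus 3 SD of all compounds, about 5% in these data, not always enough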;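 note: 0% = vehicle buffer wells and 100% = reference agonist at full effect; tested in CHO reporter cells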
# PKD1 inh = inhibitors of human PKD1 kinase | PKD1 kinase fluorescence polarization assay | inhibition, %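 (about 10 µM by stock and volumes)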 | 0.056% of 200,000 active | AID 797;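 active = inhibition of 50% or more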;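 note: controls were vehicle for no effect and a reference inhibitor for full effect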
# Target sequence (Q15139 whole entry, looked up): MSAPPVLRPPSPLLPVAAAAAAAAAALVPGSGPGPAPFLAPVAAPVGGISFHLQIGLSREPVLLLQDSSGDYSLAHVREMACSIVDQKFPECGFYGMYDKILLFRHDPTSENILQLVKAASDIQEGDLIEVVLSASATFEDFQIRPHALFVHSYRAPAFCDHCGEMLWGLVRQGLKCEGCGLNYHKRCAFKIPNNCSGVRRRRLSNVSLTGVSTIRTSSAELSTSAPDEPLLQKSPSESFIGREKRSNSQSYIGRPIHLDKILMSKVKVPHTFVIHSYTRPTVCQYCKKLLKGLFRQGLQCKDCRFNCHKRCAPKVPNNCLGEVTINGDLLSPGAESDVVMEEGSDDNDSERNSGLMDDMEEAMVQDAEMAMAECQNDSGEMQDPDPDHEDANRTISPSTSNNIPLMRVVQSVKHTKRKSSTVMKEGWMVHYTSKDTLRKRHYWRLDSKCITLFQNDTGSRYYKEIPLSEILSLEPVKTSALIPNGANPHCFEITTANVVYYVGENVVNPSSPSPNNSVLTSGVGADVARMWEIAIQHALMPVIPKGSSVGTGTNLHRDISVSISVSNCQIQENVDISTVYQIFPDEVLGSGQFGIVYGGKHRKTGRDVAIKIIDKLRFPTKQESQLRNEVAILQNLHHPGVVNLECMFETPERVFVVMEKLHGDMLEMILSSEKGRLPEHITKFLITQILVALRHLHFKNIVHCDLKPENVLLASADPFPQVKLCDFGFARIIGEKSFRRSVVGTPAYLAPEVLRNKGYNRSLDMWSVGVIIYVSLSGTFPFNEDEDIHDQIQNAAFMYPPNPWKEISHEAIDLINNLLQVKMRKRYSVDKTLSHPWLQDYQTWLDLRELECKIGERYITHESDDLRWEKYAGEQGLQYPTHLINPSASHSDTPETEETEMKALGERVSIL
# HSV replic up = HSV replication enhancement; HSV replication augmentation in cells, fold increase; maximum fold increase; 0.005% of 220,000 active; AID 1956;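 active = peak rise of 1.5-fold or more in the series; inconclusive = self-fluorescent or not available for retest; tested in PC3 cells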;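 note: first round at 10 µM; read as green reporter fluorescence; hits show the peak of a series up to 25 µM; 1 = signal of infected wells without compound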
# INS promoter inh = TRM-6 insulin promoter activity inhibition. 0.9% of 130,000 active. AID 1273. inhibition, % at 2 µM. TRM-6 cells (human fetal islet line), insulin promoter-eGFP reporter, imaging; reporter expression induced with tamoxifen;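 active = inhibition above the mean plus 3 SD, with well images judged a real hit on visual review, cut at about 60% in these data, passing the limit was not always enough; inconclusive = inhibition over the cutoff but images rejected on review; inactive = inhibition not above the cutoff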
# RGS16-Gao HTS = RGS16-Galphao interaction regulator (human) | binding response (% of control), % at 10 µM | 0.38% of 220,000 active | bead-based flow cytometry RGS16-Galphao binding, fluorescence; actives lie on both sides | AID 1441;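 active = below 25% or above 175%, edge rows of some plates excepted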;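 note: Galphao activated by GDP with aluminum fluoride before binding; 100% = wells without compound and 0% = beads without RGS; some results beyond the cut were filed as inactive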
# INS promoter inh cell count = further read-out of INS promoter inh, marked with its call; normalized cell count, %; measured here: cell count, toxicity; reference of the scale not given here;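 cells exposed to compound for 48 h; stained nuclei by imaging scaled within each plate; lower means fewer cells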
# HSV replic up primary fold = also measured in HSV replic up; calls as there; fold increase; compound at 10 µM; measured here: primary screen fold increase 10 uM; tested in PC3 cells;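 GFP signal in the first replicate; 1 = infected wells without compound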
# Starred values were filed as active, the others as inactive; i = inactive; ? = inconclusive; / = not tested or not shown; [ ] = another dose, or the depositor's remark.
# Results follow in this order: GALR2 ag, PKD1 inh, HSV replic up, HSV replic up primary fold, INS promoter inh, INS promoter inh cell count, RGS16-Gao HTS
CC1Cc2ccccc2N1CC(=O)Nc1ccc(S(N)(=O)=O)cc1 (configuration not stated)
  /, /, i, 1, /, /, 93
O=C1CC(c2ccccc2Cl)=NN(c2ncnc3ccccc23)C1=O
  /, -5, ?, /, /, /, 92
Cc1ccc(NC(=O)c2ccn(C(=O)Nc3ccccc3)n2)c(C)c1
  /, -2, i, 0.66, 0, 123, 104
O=C(O)CC1C(=O)OCN1C(=O)OCc1ccccc1 (configuration not stated)
  -1.2, -15, i, 0.88, /, /, 105
Cc1ccc(Cl)cc1N1CCN(C(=O)CSc2nnc3n2C(C)(C)Cc2ccccc2-3)CC1
  0.0, -17, i, 1, -35, 117, 99
CCC(=O)Nc1nonc1-c1nc2ccccc2n1CC(C)C
  -0.7, -5, /, /, /, /, 100
C=C1SC(=Nc2c(C)cc(C)cc2C)N(C(=O)c2sc3ccccc3c2Cl)C12CCCCC2
  /, /, i, 0.78, /, /, 94
CN(C)CCNC(=O)c1coc(=O)c(Br)c1
  -3.6, 2, i, 1, /, /, 98
Cc1cc(NS(=O)(=O)c2ccc(NC(=O)CCSc3ccc(F)cc3)cc2)nc(C)n1
  /, /, i, 0.88, /, /, 101
N#Cc1c(C(F)(F)F)cc(-c2ccccc2Cl)[nH]c1=O
  -0.5, -10, i, 0.92, /, /, 103
Cc1cccc(CNc2ccc(C(CC(N)=O)NC(=O)c3ccccc3)cc2[N+](=O)[O-])c1 (configuration not stated)
  /, /, i, 0.81, /, /, 105
COc1ccccc1N(C)S(=O)(=O)c1ccc(C(=O)OCC(=O)NCc2cccs2)cc1
  /, /, i, 1.1, /, /, 104
COc1ccc(Oc2cccc(Cl)c2CNC(=O)CCCC(=O)O)cc1
  /, /, i, 1, /, /, 101
CC1(C)Cc2cccc(OCC(O)CN3CCN(c4ccccn4)CC3)c2O1 (configuration not stated)
  -1.1, 0, i, 1, -16, 198, 100
O=C(CSc1nnc(Cn2cnc3ccccc32)o1)Nc1cccc2ccccc12
  -4.5, -9, i, 1.1, 16, 42, 95
Cc1ccc(OCCOc2ccc(Br)cc2/C=N\NC(N)=O)cc1
  /, -13, i, 0.83, /, /, 107
CC(C)(C)OC(=O)N[C@H](Cc1ccccc1)C(=O)N1CCC(C(=O)O)CC1
  -1.1, -24, i, 0.87, 31, 179, 104
CCN(C(=O)CSc1ccc2c(c1)OCCO2)C1CCS(=O)(=O)C1 (configuration not stated)
  0.3, 3, i, 0.97, -46, 71, 96
CCCn1cc(SCC(=O)NCc2ccco2)c2ccccc21
  -1.2, -23, i, 0.75, 43, 57, 103
COc1cccc(NC(=O)CSc2ncc(S(=O)(=O)c3ccccc3)c(=O)[nH]2)c1
  /, /, i, 0.88, /, /, 93
CN(C)/C=C1/C(=O)Nc2ccccc21
  -0.6, 1, i, 0.91, /, /, 25
CC(C)CCN1CCC(N)=NC1=O
  /, -3, i, 0.96, /, /, 191*[activator]
O=C(NCC(O)c1ccc([N+](=O)[O-])cc1)c1cccc(S(=O)(=O)N2CCCC2)c1 (configuration not stated)
  /, -2, i, 0.95, /, /, 115
O=C(Cn1c(=O)oc2ccccc21)c1ccccc1
  -0.7, -5, i, 0.94, 73*, 53*, 103
CN(C)NC(=O)c1ccsc1NC(=O)c1ccc(S(=O)(=O)N2CCCC2)cc1
  /, /, i, 1, /, /, 107
CC(C)(C)c1ccc(-c2nc(N)nc(N)n2)cc1
  /, /, i, 0.88, /, /, 109
CN(CC(=O)O)S(=O)(=O)/C=C/c1ccccc1
  /, -1, i, 0.96, 26, 104, 96
N#CC1=C(S)N(c2ccccc2)C(c2ccco2)NC1=O (configuration not stated)
  /, -9, i, 0.63, /, /, 114
Cc1cccc2[nH]c3c(N4CCC5(CC4)OCCO5)ncnc3c12
  0.0, -3, i, 0.7, -23, 76, 103
S=c1[nH]nc(Nc2cccc(Cl)c2)s1
  /, 4, i, 1, /, /, 98
O=C(NCc1ccncc1)C(=O)NCC(c1ccccc1)c1ccccc1
  -1.5, -6, i, 0.92, 26, 59, 106
COc1ccc(-c2cc(C(=O)Nc3ccc(C)cc3)no2)cc1
  -0.5, -6, i, 1, 25, 55, 103
CCC(C)Nc1nc(OCC(F)(F)F)nc(OCC(F)(F)F)n1 (configuration not stated)
  -0.1, -15, i, 0.99, 27, 79, 102
Cc1ccc2c(c1)cc(CN(Cc1ccco1)C(=O)COc1ccccc1)c1nnnn12
  -0.2, 0, i, 0.84, 37, 88, 101
CCCCCC1CC(/C(C)=N/NC(N)=O)OC1=O (configuration not stated)
  -1.2, 1, i, 0.97, 20, 165, 107
CCCCCC(=O)NNC(=O)Cc1ccc([N+](=O)[O-])cc1
  /, 7, i, 1.1, /, /, 100
CCCOc1ccc(/C=N\NC(=O)CCc2n[nH]c(=O)[nH]c2=O)cc1OC
  /, 4, i, 1.1, 18, 81, 65
COc1cc(OC)c2ccc(=O)oc2c1C(CCN1CCCCC1)c1ccc(N(C)C)cc1 (configuration not stated)
  /, /, i, 0.95, /, /, 98
CCc1ccc(NC2=NCC(c3ccccc3)S2)cc1 (configuration not stated)
  /, -5, i, 0.92, -17, 163, 103
Brc1ccc(-c2cnc(-c3cccs3)o2)cc1
  -1.7, 1, i, 0.89, 45, 125, 85
CN1CCN(C(=O)CCCOc2cc(=O)n(C)c3ccccc23)CC1
  -3.2, -3, i, 0.88, -7, 129, 104
COCCNC(=O)CSc1nnc(CCCN2C(=O)c3cccc4cccc(c34)C2=O)n1-c1ccccc1
  -0.1, -5, i, 1.1, 48, 111, 104
COCCn1c(C)cc(/C=C2/NC(=O)N(c3ccc(Cl)cc3)C2=O)c1C
  7.1*, -1, i, 0.91, /, /, 99
O=C(Nc1cccc(OC(F)(F)F)c1)c1ccc(Br)o1
  1.1, 5, i, 0.98, 34, 114, 97
O=C1NC(=Nc2ccccc2)CS1
  /, /, i, 0.91, /, /, 98
O=C(c1ccco1)n1nc(-c2ccccc2)nc1SCc1ccccc1
  -1.5, -5, i, 0.94, 23, 110, 129
Cn1c(=O)oc2cc(S(=O)(=O)N3CCC(C(=O)NCc4cccs4)CC3)ccc21
  -1.5, 4, i, 0.82, /, /, 100
COc1ccc(N(C(=O)c2ccccc2C)S(=O)(=O)c2cccs2)cc1
  0.4, -3, i, 0.66, -74, 12, 101
c1ccc(N2CCN(c3ncnc4c3oc3ccccc34)CC2)cc1
  -0.9, 2, /, /, -6, 127, 98
Nc1nnnn1/N=C/c1ccccc1OCc1ccc(Cl)cc1Cl
  -1.0, 6, i, 0.94, -36, 142, 101
Cc1nnc(SCC(=O)N2CCC(C(=O)Nc3nccs3)CC2)n1Cc1ccccc1
  -2.0, 1, i, 1.1, -5, 139, 105
C=CCc1c(C)nc(SCC(N)=O)[nH]c1=O
  -0.6, -11, i, 0.64, -10, 156, 109
C/C(=N\N1CCN(Cc2ccccc2Cl)CC1)c1ccc([N+](=O)[O-])cc1
  /, /, i, 1.1, /, /, 101
O=c1c(Cc2ccccc2)c(O)ccn1C1CCCCCCC1
  /, 4, i, 1, /, /, 101
O=C(NC1CCCCC1)N1CCCC(CNS(=O)(=O)Cc2ccccc2)C1 (configuration not stated)
  /, 0, i, 0.87, -21, 100, 108
O=C(C1CCN(S(=O)(=O)c2cccc3cccnc23)CC1)N1CCN(C2CCCC2)CC1
  -0.1, -2, /, /, -45, 85, 104
O=C(COC(=O)c1ccc(Br)o1)NCCCc1ccccc1
  -4.0, -18, i, 0.95, /, /, 104
CCn1c(=O)cc(SCC(=O)N2CCN(C)CC2)c2ccccc21
  -3.0, 2, i, 1, -65, 98, 98
COC(=O)Cc1nnc(Nc2cccc(C)c2)c2ccccc12
  /, /, i, 0.89, /, /, 103
CSc1nnc(-c2sc3cc(C(F)(F)F)cnc3c2-c2ccccn2)n1C
  -0.2, -10, i, 1.2, -45, 100, 111

# The listing continues:
# Results follow in this order: GALR2 ag, PKD1 inh, HSV replic up, HSV replic up primary fold, INS promoter inh, INS promoter inh cell count, RGS16-Gao HTS
CCCS(=O)(=O)N1CCN(c2cc3c(cc2[N+](=O)[O-])n(C)c(=O)n3C)CC1
  /, 0, i, 1.1, /, /, 92
Cc1ccc(C)c2[nH]c(=O)c(C(c3nnnn3Cc3ccco3)N3CCc4ccccc4C3)cc12 (configuration not stated)
  0.0, 4, i, 1.2, /, /, 103
COc1ccccc1-n1cc(C(=O)N2CCCC(CO)(Cc3ccccc3C)C2)cn1 (configuration not stated)
  /, 6, i, 1, /, /, 96
N/C(=N\N=C\c1ccc(Br)o1)c1nonc1N
  /, /, i, 1, /, /, 101
OCC(O)CNC(=S)NC1CCCCC1 (configuration not stated)
  /, -6, i, 1.1, /, /, 111
O=C(CN1/C(=C(/O)c2ccccc2)C(=O)c2ccccc2S1(=O)=O)c1ccccc1
  -3.7, 5, i, 0.89, 34, 35, 91
COC(=O)C1CSc2[nH]c(=O)sc2C1c1ccc(O)c(OC)c1 (configuration not stated)
  -0.8, -11, i, 0.95, 22, 107, 99
CS(=O)(=O)N(CC(=O)NC1CCCCC1)c1cccc(F)c1
  /, 7, i, 1, /, /, 103
Cn1c(=O)n(C)c2cc([N+](=O)[O-])c(N3CCN(S(C)(=O)=O)CC3)cc21
  -0.6, -5, i, 0.94, 43, 165, 102
CC(C)(C)c1cc(-c2csc(Nc3ccccc3)[n+]2Cc2ccc(C(=O)O)cc2)cc(C(C)(C)C)c1O
  /, /, i, 0.96, /, /, 100
C=CCNC(=S)N/N=C/c1ccc(C)cc1C
  /, 6, i, 0.81, /, /, 100
C[n+]1ccc(CC2C(=[N+]([O-])[O-])C=Nc3ncnn32)cc1 (configuration not stated)
  /, -3, i, 0.84, 67, 128, 103
CCn1cc(C(=O)O)c(=O)c2cc(F)c(N3CCN(C(=S)NC(=O)c4cccc(F)c4)CC3)cc21
  /, /, i, 0.96, /, /, 96
CCOc1ccc2c(c1)C(c1ccccc1)=NNC(c1ccccc1)=N2
  -1.9, 0, i, 0.97, -85, 105, 119
CC(=O)Nc1ccc(S(=O)(=O)NCc2csc(-c3cccnc3)n2)cc1
  -1.2, 2, i, 0.87, 43, 131, 146

# Three successive compounds out of the list so far:
# Results follow in this order: GALR2 ag, PKD1 inh, HSV replic up, HSV replic up primary fold, INS promoter inh, INS promoter inh cell count, RGS16-Gao HTS
CCn1cc(C(=O)O)c(=O)c2cc(F)c(N3CCN(C(=S)NC(=O)c4cccc(F)c4)CC3)cc21
  /, /, i, 0.96, /, /, 96
CCOc1ccc2c(c1)C(c1ccccc1)=NNC(c1ccccc1)=N2
  -1.9, 0, i, 0.97, -85, 105, 119
CC(=O)Nc1ccc(S(=O)(=O)NCc2csc(-c3cccnc3)n2)cc1
  -1.2, 2, i, 0.87, 43, 131, 146

# (further entries)
# Results follow in this order: GALR2 ag, PKD1 inh, HSV replic up, HSV replic up primary fold, INS promoter inh, INS promoter inh cell count, RGS16-Gao HTS
COc1cc(C(=O)NCC(=O)OCc2cc(=O)oc3c(C)c(C)ccc23)cc(OC)c1OC
  /, -6, i, 0.85, /, /, 103
Cc1oc(-c2ccccc2Cl)nc1CSc1nc2c(c(=O)[nH]1)CCCC2
  /, /, i, 0.98, /, /, 103
COC(=O)c1cc2cc(Cl)ccc2nc1SC
  /, /, i, 1.1, /, /, 101
C/C=C(/C)C(=O)O[C@@H]1c2cc3c(c(OC)c2-c2c(cc(OC)c(OC)c2OC)[C@@H](OC(C)=O)[C@@H](C)[C@H]1C)OCO3
  /, /, i, 0.9, /, /, 99
Cc1cc(C)c(O)c(-c2cc(C(=O)Nc3ccc(S(=O)(=O)N4CCOCC4)cc3)[nH]n2)c1
  -0.8, 6, i, 0.71, /, /, 105
CCOC(=O)N1CCC(N(CCN(C)C)C(=S)Nc2cccc(C)c2)CC1
  -1.1, -3, i, 0.98, 20, 131, 105
CC(Sc1nncn1C)C(=O)Nc1nnc(-c2ccccc2)s1 (configuration not stated)
  -2.5, 9, i, 0.97, /, /, 103
CSC1=N/C(=C/c2cccnc2)C(=O)N1Cc1ccccc1
  /, /, i, 0.84, /, /, -5.1*
CC(=O)NC(C)(C)C1CC=C(C)/C(=N\O)C1 (configuration not stated)
  -2.1, -1, i, 0.82, /, /, 102
COc1cc(OC)c2ccc(=O)oc2c1C(CC(=O)N1CCN(c2ccccc2)CC1)c1ccc2c(c1)OCO2 (configuration not stated)
  /, /, i, 0.68, /, /, 96
COC(=O)c1c(NC(=O)CN2CCC(C(N)=O)CC2)c2c(C)cccc2n1C
  -3.2, 1, i, 0.93, /, /, 95
CC(C(=O)OCC(=O)Nc1cccc(S(=O)(=O)N(C)C)c1)N1C(=O)c2ccccc2C1=O (configuration not stated)
  /, 0, i, 1, /, /, 101
O=C(CC1Nc2ccccc2NC1=O)NCC1COc2ccccc2O1 (configuration not stated)
  -0.3, -17, i, 1.1, 43, 81, 102
